Source: PubChem
AmpC nodet inh – Promiscuous and Specific Inhibitors of AmpC Beta-Lactamase (assay without detergent) | AmpC nitrocefin hydrolysis, absorbance 480 nm, no detergent; potencies from a single point are estimates | hit rate 1.8% among 71,000 | Potency, µM (titrated, usually from 28.7 µM), for inactives: at the top dose activity change, negative = inhibition; active = falling curve, for most hits resting on a single point; inconclusive = weak or doubtful change; inactive = flat or rising curve; further: % of control where 0% means no effect; about half of the hits show no inhibition at the top dose; a quarter of the inactives give rising signals
Target sequence (P00811 whole entry, looked up): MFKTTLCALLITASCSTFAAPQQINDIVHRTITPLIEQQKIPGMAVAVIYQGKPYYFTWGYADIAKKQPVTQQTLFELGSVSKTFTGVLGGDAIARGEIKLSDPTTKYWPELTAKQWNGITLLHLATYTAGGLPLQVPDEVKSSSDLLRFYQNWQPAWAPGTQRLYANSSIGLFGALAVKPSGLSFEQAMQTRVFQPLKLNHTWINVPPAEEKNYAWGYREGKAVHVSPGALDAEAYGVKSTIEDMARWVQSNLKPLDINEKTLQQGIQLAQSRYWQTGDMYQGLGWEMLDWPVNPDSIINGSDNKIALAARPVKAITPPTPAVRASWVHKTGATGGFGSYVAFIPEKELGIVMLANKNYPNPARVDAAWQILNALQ
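AmpC in 20 mM phosphate buffer pH 7.0 was preincubated 15 min at room temperature with compounds. Nitrocefin (800 uM stock) was then added and hydrolysis followed at 480 nm every 20 s for 4 min.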
* = called active by the depositor; [ ] = dose if it differs, or a comment. Potency means the concentration at half of the fitted maximal effect.

CCCCOc1ccc(CSc2nncn2N)cc1 was read as AmpC nodet inh 17.2%.
Screening COc1ccccc1N1CCN(Cc2ccco2)CC1 returned AmpC nodet inh -1.8%.
`S=c1[nH]nc(-c2ccncc2)n1CC1CCCO1` (stereo unspecified) gave AmpC nodet inh -15.3%.
For CCNC(=O)N1CCNC(=O)C1CC(=O)Nc1ccc(C(=O)OCC)cc1 (stereo unspecified) the results were AmpC nodet inh 27.9%.
CCOC(=O)/C=C/S(=O)(=O)c1ccc(NC(C)=O)cc1 was read as AmpC nodet inh -4.0%.
For Cc1ccco1 the results were AmpC nodet inh -12.4%.
Screening COc1ccc(N2C(=O)C3CC(C)=C(C)CC3C2=O)c(OC)c1 (stereo unspecified) returned AmpC nodet inh 14.1%.
Screening Cc1ccc2c(c1)nc(NCCO)n2C returned AmpC nodet inh 3.1%.
Screening CCn1cnc2c1c(=O)n(CC(=O)Nc1cc(C)on1)c(=O)n2Cc1ccccc1 returned AmpC nodet inh 47.1%.
`CN1C(=O)CS(=O)c2ccc(C(=O)NCCC3=CCCCC3)cc21` (stereo unspecified) gave AmpC nodet inh 27.8%.

Quoted at random: 2 records from the list
Screening COc1ccc(N2C(=O)C3CC(C)=C(C)CC3C2=O)c(OC)c1 (stereo unspecified) returned AmpC nodet inh 14.1%.
For Cc1ccco1 the results were AmpC nodet inh -12.4%.

Carrying on:
`CC1Cc2nc(SCC(N)=O)n(Cc3ccccc3)c(=O)c2S1` (stereo unspecified) gave AmpC nodet inh -0.1%.
CCN(CC)S(=O)(=O)c1ccc(NCc2ccccc2)nc1 was read as AmpC nodet inh -18.7%.
`CC(=O)OCCn1c(Br)nc2c1c(=O)[nH]c(=O)n2C` gave AmpC nodet inh -3.6%.
For COC(=O)c1cc(=O)[nH]c(=O)[nH]1 the results were AmpC nodet inh 1.8%[5.75 µM].
COc1cc(OC)cc(C(=O)N2CCN(Cc3ccccc3C(F)(F)F)CC2)c1 was read as AmpC nodet inh 107.1%.
For Cc1ccc(-n2nnc3c(=O)n(CC(=O)N4CCC(C)CC4)cnc32)cc1 the results were AmpC nodet inh 14.4%.
Screening O=C(NC1C=CS(=O)(=O)C1)c1sc2ccccc2c1Cl (stereo unspecified) returned AmpC nodet inh 9.9%.
CCOC(=O)c1cc2sc(C)cc2n1CC(=O)Nc1ccc2c(c1)OCCO2 was read as AmpC nodet inh 17.6%.
For CCOC(=O)c1cnc(SC2CCc3ccccc3C2=O)nc1N (stereo unspecified) the results were AmpC nodet inh 10.9%.
For COc1ccc(-n2c(=O)c(-c3cccs3)nc3cnc(OC)nc32)cc1 the results were AmpC nodet inh 19.1%.

Continued; the last four above are carried over.
Screening O=C(NC1C=CS(=O)(=O)C1)c1sc2ccccc2c1Cl (stereo unspecified) returned AmpC nodet inh 9.9%.
CCOC(=O)c1cc2sc(C)cc2n1CC(=O)Nc1ccc2c(c1)OCCO2 was read as AmpC nodet inh 17.6%.
For CCOC(=O)c1cnc(SC2CCc3ccccc3C2=O)nc1N (stereo unspecified) the results were AmpC nodet inh 10.9%.
For COc1ccc(-n2c(=O)c(-c3cccs3)nc3cnc(OC)nc32)cc1 the results were AmpC nodet inh 19.1%.
`COC(=O)c1ccc(CSc2nc3ccccc3c(=O)n2Cc2ccco2)o1` gave AmpC nodet inh 20.5%.
`CCCn1c(=O)c(C(=O)NCc2ccc(OC)c(OC)c2)c(O)c2ccccc21` gave AmpC nodet inh 102.2%.
Screening Cc1cc(NC(=O)CCS(=O)(=O)c2nc(-c3ccccc3)cc(C(F)(F)F)n2)no1 returned AmpC nodet inh -10.9%.
COc1ccc(C2C(C(=O)N3CCOCC3)c3ccccc3C(=O)N2c2ccc(OC)cc2)cc1 (stereo unspecified) was read as AmpC nodet inh 86.1%.
Screening O=C(CN1C(=O)c2ccccc2S1(=O)=O)NC1CCCCCC1 returned AmpC nodet inh 3.7%.
O=C(Nc1ccc(N2CCOCC2)cc1)c1ccc2nc(-c3ccco3)c(-c3ccco3)nc2c1 was read as AmpC nodet inh 34.2%.
For CCSc1nc(N2CCOCC2)c2ccccc2n1 the results were AmpC nodet inh 3.2%.
Screening CCOc1ccc(OC(=O)c2cccnc2)cc1 returned AmpC nodet inh 6.0%.
For COc1ccc2c(c1)c1nnc(SCC(=O)N3C(C)CCCC3C)nc1n2C (stereo unspecified) the results were AmpC nodet inh 146.3%.
For CCOC(=O)C1CCCN(Cc2nc(N)nc(Nc3ccc(C)cc3)n2)C1 (stereo unspecified) the results were AmpC nodet inh 15.5%.
`CSc1ncnc2c1ncn2[C@@H]1O[C@@H](CO)[C@H](O)O[C@@H]1O` gave AmpC nodet inh -4.3%[5.75 µM].
`COc1cccc(C2CC(c3ccc(F)cc3)Nc3nc(N)nn32)c1` (stereo unspecified) gave AmpC nodet inh 2.51µM*[single pt active].
For Cc1ccc(-n2c(Cc3cccn3C)nnc2SCC(=O)NCc2ccc3c(c2)OCO3)cc1 the results were AmpC nodet inh 93.6%.
CC(=O)O[C@H]1CC[C@@]2(C)C(=CC[C@@H]3[C@H]4CC[C@@H]([C@H](C)C(=O)O)[C@]4(C)CC[C@H]32)C1 was read as AmpC nodet inh -0.6%[5.75 µM].
For CN(C)Cc1ccccc1-c1cncnc1NC1CC1 the results were AmpC nodet inh 10.1%.
COC(=O)C(CCSC)NC(=O)CNC(=O)C1CCCCC1 (stereo unspecified) was read as AmpC nodet inh -0.7%.
For C/C(N)=C(/C#N)C(=O)CSc1nnc(SCc2ccc(Cl)cc2)s1 the results were AmpC nodet inh -15.4%.
O=C(NCc1ccccn1)[C@H]1C[C@@H]1[C@H](NP(=O)(c1ccccc1)c1ccccc1)c1ccccc1 was read as AmpC nodet inh 121.3%.
For Cc1[nH]nc2c1C1(C(=O)N(Cc3ccc(Cl)cc3)c3ccccc31)C(C#N)=C(N)O2 (stereo unspecified) the results were AmpC nodet inh 29.7%.
For COC(=O)COc1ccc(S(=O)(=O)NCc2cccnc2)cc1C the results were AmpC nodet inh -4.5%.
Screening COc1ccc2cc(C(=O)N3CCCCCC3)sc(=O)c2c1OC returned AmpC nodet inh 24.8%.
For Cc1cc(C)n(-c2nc3ccccc3nc2N2CCN(C(=O)c3ccc(Cl)cc3)CC2)n1 the results were AmpC nodet inh 136.4%.
Screening O=C(NC1(C(F)(F)F)C(=O)Nc2c1c(=O)[nH]c(=O)n2Cc1ccco1)C1CC1 (stereo unspecified) returned AmpC nodet inh -13.6%.
Cn1cnc2c(NC3CCCC3)ncnc21 was read as AmpC nodet inh 3.3%.
Screening COc1ccc(OC)c(NC2=NC3(CCCCC3)N=C(N)N2)c1 returned AmpC nodet inh -11.0%.
CCN1CCN(c2ncnc3c2nnn3Cc2ccccc2)CC1 was read as AmpC nodet inh 32.0%.
`Clc1ccccc1-c1nn2c(COc3ccccc3)nnc2s1` gave AmpC nodet inh -8.6%.
For Nc1nc(SCC(=O)c2ccc(Br)cc2)c2[nH]cnc2n1 the results were AmpC nodet inh -6.5%[5.75 µM].
`O=C(NCc1ccccn1)c1ccc2ccccc2n1` gave AmpC nodet inh 11.1%.
`O=S1(=O)c2cccc3cccc(c23)N1Cc1nnc(-c2ccccc2Br)o1` gave AmpC nodet inh -18.7%.
For COc1ccc(C(=O)NCc2nnc(SCC(=O)Nc3cc(C)cc(C)c3)o2)cc1OC the results were AmpC nodet inh 49.1%.
Screening Cc1noc(C(=O)Nc2c(C)n(C)n(-c3ccccc3)c2=O)c1Cl returned AmpC nodet inh 4.8%.
Screening COC(=O)CC[C@@H](C(=O)O)N1C(=O)c2ccccc2C1=O returned AmpC nodet inh 0.9%.
Screening Cc1nnc(N(C(=O)c2cnccn2)c2ccccc2)s1 returned AmpC nodet inh -3.1%.
For CC1CCCCN1CCNC(=O)CC1Oc2ccccc2NC1=O (stereo unspecified) the results were AmpC nodet inh 2.51µM*[single pt active].
O=C(Nc1cnn(Cc2ccc(Cl)cc2)c1)c1cnccn1 was read as AmpC nodet inh 15.1%.
Screening COC(=O)NCc1cccc(CNC(=O)OC)c1 returned AmpC nodet inh 4.2%.
`CN1C(=O)C(Cc2cccc3ccccc23)C(=O)N(C)C1=O` gave AmpC nodet inh 1.4%.
Screening CC(=O)c1cnc2cc(-c3ccccc3)nn2c1C returned AmpC nodet inh 7.4%.
`COc1ccc(S(=O)(=O)Nc2cc(C)c(O)c(S(=O)(=O)c3ccccc3)c2)cc1` gave AmpC nodet inh inconclusive.
O=C(OCCOCCN=C1NS(=O)(=O)c2ccccc21)C1CC(=O)N(c2ccccc2)C1 (stereo unspecified) was read as AmpC nodet inh 28.6%.
`CCOc1cc(C2NC(=O)NC(O)(C(F)(F)F)C2C(=O)c2ccccc2)ccc1OC` (stereo unspecified) gave AmpC nodet inh 54.8%.
`C=CCc1ccc(OCC(O)CN2CCCCC2C)c(OC)c1` (stereo unspecified) gave AmpC nodet inh -1.0%.
For [O]=[Cd] the results were AmpC nodet inh 0.8%.
For CCC(C)(C(=O)NC1CCCCC1)N(C)C(=O)c1ccccn1 (stereo unspecified) the results were AmpC nodet inh -4.7%.
For CC(C)CNS(=O)(=O)c1ccc(CCC(=O)N2CCOCC2)cc1 the results were AmpC nodet inh -2.6%.
`Cn1ncc(C#N)c1NC(=O)c1nn2cccnc2c1Cl` gave AmpC nodet inh -4.3%.
`CCOc1ccc(NC(=O)CCC(=O)n2nc(C)cc2C)cc1` gave AmpC nodet inh -5.6%.
Screening O=C(Nc1ccc(S(=O)(=O)N2CCc3ccccc32)cc1)c1ccc2c(c1)OCO2 returned AmpC nodet inh 12.6µM*.
`CC(C)N(CC[C@@](C(N)=O)(c1ccccc1)c1ccccn1)C(C)C` gave AmpC nodet inh -15.5%[12.8 µM].
Screening CCOC(=O)c1[nH]c(C)c(C(=O)NC2CCCC2)c1C returned AmpC nodet inh 5.2%.
Screening CCCC(=O)Nc1ccc(S(=O)(=O)Nc2cc(C)nc(C)n2)cc1 returned AmpC nodet inh 0.7%.
Screening Cn1c(-c2ccc3c(c2)OCO3)cnc1NCc1ccc(Cl)cc1 returned AmpC nodet inh -10.4%.
Screening Cc1occc1C(=O)Nc1cc(C(C)(C)C)on1 returned AmpC nodet inh -6.9%.
`CC(C)[C@]1(Cl)CC[C@@H]2[C@]3(C)CCC[C@@](C)(C(=O)O)[C@H]3C[C@H](Cl)[C@@]2(Cl)[C@H]1Cl` gave AmpC nodet inh 1.6%[5.75 µM].
For COc1nc(-c2ccccc2)cc(C(F)(F)F)n1 the results were AmpC nodet inh 14.7%.
`CCCOc1ccc(-c2nnn(CC(=O)OCC)n2)cc1` gave AmpC nodet inh 11.6%.
For N=c1oc2c3c4c(cc2cc1C(=O)Nc1ccccc1)CCCN4CCC3 the results were AmpC nodet inh 9.3%.
`COc1ccc2oc(-c3ccccc3)c(C(N)=O)c2c1` gave AmpC nodet inh 0.1%.
O=C(Cn1cc2c(n1)CCCCC2)Nc1ccc(F)cc1F was read as AmpC nodet inh 7.6%.

Among those listed so far, these contain a COOH group:
CC(=O)O[C@H]1CC[C@@]2(C)C(=CC[C@@H]3[C@H]4CC[C@@H]([C@H](C)C(=O)O)[C@]4(C)CC[C@H]32)C1 was read as AmpC nodet inh -0.6%[5.75 µM].
Screening COC(=O)CC[C@@H](C(=O)O)N1C(=O)c2ccccc2C1=O returned AmpC nodet inh 0.9%.
`CC(C)[C@]1(Cl)CC[C@@H]2[C@]3(C)CCC[C@@](C)(C(=O)O)[C@H]3C[C@H](Cl)[C@@]2(Cl)[C@H]1Cl` gave AmpC nodet inh 1.6%[5.75 µM].

Remaining list, next part
Screening Cc1ccc(NC(=O)CS(=O)CC(=O)NC2CCN(Cc3ccccc3)CC2)c(C)c1 (stereo unspecified) returned AmpC nodet inh 10.8%.
CS(=O)(=O)NC1c2cccc3cccc(c23)C1Sc1nncn1/N=C/c1ccco1 (stereo unspecified) was read as AmpC nodet inh 67.4%.
For O=C(CSc1n[nH]c(-c2cccs2)n1)NCc1cccs1 the results were AmpC nodet inh -0.3%.
`Cn1nnnc1SCCNCc1cccnc1` gave AmpC nodet inh -2.7%.
Screening O=C1Nc2cc(Cl)ccc2C1(N1CCNCC1)C(F)(F)F (stereo unspecified) returned AmpC nodet inh -2.0%.
CCCOC(=O)c1ccc(NC(=O)c2ccoc2C)cc1 was read as AmpC nodet inh -10.5%.
For CCOc1ccc2[nH]c(=O)c(CN(CCO)C3(c4nnnn4C4CCCCC4)CCCCC3)cc2c1 the results were AmpC nodet inh 113.0%.
For O=C(c1ccco1)N1CCN(C/C=C/c2ccccc2)CC1 the results were AmpC nodet inh 30.6%.
For COc1cccc(-n2nnc3c(=O)n(Cc4cccc(C)c4)cnc32)c1 the results were AmpC nodet inh -6.7%.
For O=C(COC(=O)CCC(=O)c1cccs1)Nc1ccc(S(=O)(=O)N2CCOCC2)cc1 the results were AmpC nodet inh 23.5%.
For COc1ccc(C(=O)N2CCC3(CCCN(C(c4ccccc4)c4ccccc4)C3)CC2)cc1 the results were AmpC nodet inh 15.8%.
CC(C)c1cc(C(F)(F)F)n2nc(C(=O)Nc3ccc4c(c3)OCO4)cc2n1 was read as AmpC nodet inh 39.2%.
For COc1ccc(CCNc2cc(=O)[nH]c(N)n2)cc1 the results were AmpC nodet inh 7.1%.
COc1ccc(Br)cc1-c1noc(-c2ccccc2)n1 was read as AmpC nodet inh 22.8%.
`C=CCNC(=O)c1ccccc1NC(=O)Nc1ccccc1` gave AmpC nodet inh -3.8%.
`CCN(CC)C(=O)c1ccc(C)c(Br)c1` gave AmpC nodet inh 20.5%.
COc1cccc(Nc2c(F)c(OC)c(F)c(F)c2C(=O)O)c1 was read as AmpC nodet inh -11.6%.
Screening CC(C)COC(=O)CCn1[nH]c(=O)c2ccccc2c1=O returned AmpC nodet inh -6.1%.
For CC1(C)CC(=O)C=C(Nc2cccc(O)c2)C1 the results were AmpC nodet inh -8.9%.
Nc1ccccc1-c1ccccc1 was read as AmpC nodet inh -12.7%.
Nn1cc(-c2ccccc2)nc1SCC(=O)NCCN1C(=O)CSC1=O was read as AmpC nodet inh -2.2%.
Screening Cc1[nH]c(=S)[nH]c(=O)c1Cc1ccccc1 returned AmpC nodet inh -2.4%.
`O=C(Nc1ccccc1)N1CC[C@@]2(CCCN(C(=O)c3cccc(F)c3)C2)C1` gave AmpC nodet inh 27.3%.

Only part of the results is shown. The share of hits here may be higher or lower than overall.
